Screening results: PubChem BioAssay, National Center for Advancing Translational Sciences (NCATS)
D2 agonist – Beta-Arrestin HTS for Positive Allosteric Modulators of the Human D2 Dopamine Receptor: Agonists; 0.084% of 360,000 active; DiscoveRx PathHunter D2 beta-arrestin, luminescence, 90 min; 100% = 57 uM dopamine signal; activation, % (concentration not given with the values); D(2) dopamine receptor (Homo sapiens), P14416; in the data active = activation above about 40%; inconclusive = about 15% to 40%; inactive = below about 15%; note: compound concentration not given in the record; the text of the record calls up to 30% inactive
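Agonist mode: compounds alone added to overnight-plated D2 PathHunter cells for 90 min at 37 C, with 57 uM final dopamine (EC100) defining full response. Beta-arrestin recruitment detected by chemiluminescent reagent, read after 1 h at ambient temperature.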
TRPML1 blocker – qHTS for Inhibitors of the Human Mucolipin Transient Receptor Potential 1 (TRPML1). Mucolipin-1 (Homo sapiens), Q9GZU1. TRPML1-inducible cells, Ca2+ dye fluorescence, FDSS; active compounds read low; inhibition of EC80 agonist-evoked calcium signal. activity change, negative = inhibition, % (test concentration not listed). 0.02% of 390,000 active; in the data active means activity change below about -50%; inconclusive means about -30% to -50%; inactive means above about -30%;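 note: stimulus is agonist 54-4 at its EC80 concentration; % is set by controls: 0 for no effect and ±100 for the full control effect; compound concentration not given in the record; the text of the record puts the active cut at -80%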
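Tet-induced TRPML1-DL cells loaded with Ca8 no-wash calcium dye were read kinetically on FDSS. Compound addition was followed by EC80 agonist 54-4 (4 uM final); inhibition was read over 110 s.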
Six1-Eya2 inh – qHTS Assay for Inhibitors of the Six1/Eya2 Interaction | 0.56% of 360,000 active | activity change, % (concentration not given with the values) | AID 651725, 2012 | AlphaScreen GST-Six1/His-Eya2 binding, biochemical; active compounds read low; control for the full effect not named in the record; in the data active = activity change below about -65%; inconclusive = about -30% to -65%; inactive = above about -30%; note: % is set by controls: 0 for no effect and ±100 for the full control effect
Target sequence (O00167 whole entry, looked up): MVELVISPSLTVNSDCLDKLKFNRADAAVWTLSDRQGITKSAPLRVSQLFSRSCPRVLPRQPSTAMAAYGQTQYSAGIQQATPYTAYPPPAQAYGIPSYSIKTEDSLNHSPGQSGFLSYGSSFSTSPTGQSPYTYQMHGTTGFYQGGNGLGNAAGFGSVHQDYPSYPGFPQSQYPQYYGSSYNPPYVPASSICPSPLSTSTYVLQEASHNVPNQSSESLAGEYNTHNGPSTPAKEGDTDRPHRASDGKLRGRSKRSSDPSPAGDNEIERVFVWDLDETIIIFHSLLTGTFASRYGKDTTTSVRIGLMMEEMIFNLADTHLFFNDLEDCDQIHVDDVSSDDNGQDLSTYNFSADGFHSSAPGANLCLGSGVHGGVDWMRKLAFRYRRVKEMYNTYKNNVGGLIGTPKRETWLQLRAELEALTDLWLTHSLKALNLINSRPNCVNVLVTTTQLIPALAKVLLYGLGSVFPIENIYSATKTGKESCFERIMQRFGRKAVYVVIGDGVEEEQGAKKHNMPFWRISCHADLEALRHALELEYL
Target sequence (Q15475 whole entry, looked up): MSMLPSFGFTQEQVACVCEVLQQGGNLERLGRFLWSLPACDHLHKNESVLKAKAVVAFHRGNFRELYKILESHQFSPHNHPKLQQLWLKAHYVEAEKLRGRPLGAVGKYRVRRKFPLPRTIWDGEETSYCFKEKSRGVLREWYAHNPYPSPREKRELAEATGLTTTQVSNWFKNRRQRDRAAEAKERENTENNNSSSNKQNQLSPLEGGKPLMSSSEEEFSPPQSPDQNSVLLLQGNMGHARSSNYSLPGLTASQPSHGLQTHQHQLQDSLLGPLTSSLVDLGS
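AlphaScreen luminescence read after one hour at 37 °C in darkness. Pin-transferred compounds met GST-Six1 and His-Eya2 protein (5X stock 250 nM/500 nM) plus glutathione donor and Ni-chelate acceptor beads (5X, 50 ug/mL).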
TRPML1 ag – qHTS for Agonists of the Human Mucolipin Transient Receptor Potential 1 (TRPML1); 0.12% of 410,000 active; AID 624414, 2012; activation, % (no concentration beside the values); TRPML1-expressing cells, Ca2+ dye fluorescence, FDSS; host cell line not named in the record; reference of the full effect not given here; in the data active = activation above about 50%; inconclusive = about 30% to 50%; inactive = below about 30%; note: 0% is about no effect; the text of the record puts the active cut at 80%
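Tetracycline-induced TRPML1-DL cells are seeded and incubated overnight before loading with a no-wash Ca2+ dye and quencher. Agonist activity is taken from the 110 s fluorescence read following compound pin-transfer on an FDSS, before EC80 54-4 challenge.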
CtBP-E1A inh – qHTS Assay for Inhibitors of the CtBP/E1A Interaction. 0.49% of 340,000 active. activity change, % (no concentration beside the values). AlphaScreen GST-E1A/His-CtBP binding, 1536-well; active compounds read low; control for the full effect not named in the record; in the data active means activity change below about -65%; inconclusive means about -30% to -65%; inactive means above about -30%; note: % is set by controls: 0 for no effect and ±100 for the full control effect
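Homogeneous bead-based format: GST-tagged E1A captured on glutathione donor beads, His-tagged CtBP on nickel acceptor beads; compounds precede bead addition by 2 h at 37 °C.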
PINK1 modulator – A Quantitative High throughput Screen to Identify Chemical Modulators of PINK1 Expression; PINK1 immunofluorescence, high-content cytometry, 24 h; Potency, µM (series often up to 76.6 µM), for inactives: at the highest dose activation (PINK1 increase), actives largely listed as activators; 0.2% of 410,000 active; AID 624263, 2012; active = well fitted activation curve with a large enough effect; inconclusive = small, poorly fitted or top-dose-only effect; inactive = flat fitted curve, though single readings scatter; cell line not stated here;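 note: potency is the fitted concentration of half-maximal effect; % of control where 0% means no effect; nearly all actives have a fitted effect of over 65% in size; a mitochondrial uncoupler was the plate control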
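Measures PINK1 amount and localization on or inside mitochondria by immunofluorescence. Stable cells get compounds at 5 concentrations for 24 hours before fixation and staining; CCCP controls included.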
* hit, by the source's call; ? = inconclusive; / = not tested or not shown; [ ] = dose if it differs, or a comment.

| SMILES | D2 agonist | TRPML1 blocker | Six1-Eya2 inh | TRPML1 ag | CtBP-E1A inh | PINK1 modulator |
| --- | --- | --- | --- | --- | --- | --- |
| O=C(O)c1cc(NS(=O)(=O)c2ccc(N3CCOCC3)c([N+](=O)[O-])c2)cc(C(=O)O)c1 | -4.3 | ? | 0.3 | -0.3 | 4.2 | 1.7% |
| COc1cccc(N(C(=O)c2snc(C(N)=O)c2N)C(C(=O)NCc2ccccc2)c2ccc(O)cc2)c1 (stereo not drawn) | 1.5 | -16.2 | -3.6 | 1.8 | 5.7 | -2.1% |
| CCN(C[C@H]1N[C@@](C)(C(=O)OC)[C@H]2C(=O)N(Cc3ccccc3)C(=O)[C@@H]12)C(=O)Nc1ccc(Cl)cc1 | -0.6 | -13.6 | 1.5 | 0.0 | 7.3 | 2.3% |
| Cc1ccc(CNC(=O)c2cc(=O)c3ccc(C)cc3o2)cc1 | -2.7 | -17.6 | 4.9 | -0.9 | 1.0 | 5.0% |
| Cc1c(CCC(=O)NCCC(=O)O)c(=O)oc2c(C)c3oc4c(c3cc12)CCCC4 | -6.1 | 0.7 | -23.1 | -0.1 | / | 1.0% |
| CCn1nc(C)cc1-c1nnc(SCC(=O)Nc2ccccc2)n1CCCOC | -4.5 | 14.6 | 2.2 | -0.2 | -4.2 | -0.1% |
| CN(Cc1ccccc1)C(=O)c1ccccc1C(=O)O | 8.1 | 29.9 | -4.9 | 0.0 | 13.5 | -0.5% |
| Nc1c(-c2cccs2)cnn1-c1nc(-c2ccc(F)cc2)cs1 | 1.9 | -0.5 | -4.2 | 0.6 | -1.3 | ? |
| COCCCN1C(=O)/C(=C\c2cccs2)C(C(=O)OC)=C1C | -6.3 | -2.0 | -6.2 | -0.6 | -1.1 | -0.8% |
| Cc1cccc(NC(=O)c2cc3c(=O)n4ccccc4nc3n(CC(C)C)c2=N)c1 | -6.4 | 2.5 | 5.0 | -0.6 | 0.3 | 1.1% |
| CCC1CCCCN1CCCNC(=O)CCCOc1cc(=O)n(C)c2ccccc12 (stereo not drawn) | -1.7 | 13.7 | 2.5 | -0.4 | 0.2 | 0.9% |
| Cc1nc(-[n+]2nc(-c3ccncc3)nn2-c2ccccc2)sc1C | 12.3 | / | -91.2* | -1.2 | -87.9* | 3.3% |
| N/C(=N\OC(=O)c1cccnc1)c1ccc(Cl)cc1Cl | ? | 27.8 | -0.6 | 0.1 | -1.0 | 1.6% |
| Cc1cc(C)c(NC(=O)CSc2ccc(-c3cccnc3)nn2)c(C)c1 | -0.9 | 8.2 | 1.4 | -0.7 | -1.7 | -0.9% |
| C=CCn1c(SCC(N)=O)nc2nc3c(cc2c1=O)COC(C)(C)C3 | 2.2 | 12.1 | -0.6 | 0.5 | 4.9 | 2.4% |
| CCc1ccc(C(=O)NNC(=O)c2n[nH]c(=O)c3ccccc23)cc1 | -2.4 | 6.7 | -1.4 | 0.4 | -2.0 | 0.9% |
| COc1ccc(Cn2c(=O)[nH]c3cc(C(=O)NCCc4ccc(S(N)(=O)=O)cc4)ccc3c2=O)cc1 | -4.0 | 31.3 | 9.6 | 0.5 | 0.0 | 4.6% |
| O=C(COc1cccc(F)c1)Nc1nc(-c2ccccn2)cs1 | -0.4 | -5.6 | -77.0* | -0.9 | ? | -0.8% |
| CCc1cccc(NS(=O)(=O)c2c(C)n[nH]c2C)c1 | -1.5 | 5.4 | -0.1 | -0.8 | 1.0 | 2.2% |
| COc1cccc2cc(C(=O)NCc3ccccn3)c(=O)oc12 | -2.3 | -1.1 | -5.0 | 0.7 | 0.2 | -0.6% |

3 records picked at random from the list so far, as already listed:
| SMILES | D2 agonist | TRPML1 blocker | Six1-Eya2 inh | TRPML1 ag | CtBP-E1A inh | PINK1 modulator |
| --- | --- | --- | --- | --- | --- | --- |
| CCc1ccc(C(=O)NNC(=O)c2n[nH]c(=O)c3ccccc23)cc1 | -2.4 | 6.7 | -1.4 | 0.4 | -2.0 | 0.9% |
| COc1cccc2cc(C(=O)NCc3ccccn3)c(=O)oc12 | -2.3 | -1.1 | -5.0 | 0.7 | 0.2 | -0.6% |
| Cc1nc(-[n+]2nc(-c3ccncc3)nn2-c2ccccc2)sc1C | 12.3 | / | -91.2* | -1.2 | -87.9* | 3.3% |

Next results
| SMILES | D2 agonist | TRPML1 blocker | Six1-Eya2 inh | TRPML1 ag | CtBP-E1A inh | PINK1 modulator |
| --- | --- | --- | --- | --- | --- | --- |
| CCn1cc(C(=O)N2CCc3ccccc32)c(=O)c2cc(S(=O)(=O)N3CCCC3)ccc21 | -2.2 | 3.9 | 0.0 | -0.5 | -2.0 | 0.0% |
| O=S(=O)(NCc1cc(-c2ccccc2)no1)c1ccccc1Cl | 0.8 | 43.8 | 7.7 | 0.3 | 1.9 | 2.8% |
| CCCC1CCc2[nH]nc(C(=O)NN)c2C1 (stereo not drawn) | -2.1 | 40.1 | 4.4 | 0.2 | 2.8 | 0.4% |
| Brc1ccc(CN2C3=NCCCN3c3ccccc32)cc1 | -1.6 | 12.3 | 2.7 | 1.1 | -19.1 | 1.2% |
| Cc1nnc(SCc2cc([N+](=O)[O-])cc3c2OCOC3)n(N)c1=O | -1.9 | 1.0 | -2.7 | -0.6 | 0.8 | -1.3% |
| CC(C)Cn1c(SCC(=O)N2CC(=O)Nc3ccccc32)nc2ccccc21 | -6.4 | -11.9 | 3.3 | -0.1 | -2.8 | 1.7% |
| CCCCNCc1nc2ccccc2c(=O)[nH]1 | -4.2 | -18.0 | -14.4 | 1.9 | -21.9 | -1.2% |
| CC(=O)c1ccc(OC(=O)c2c(-c3ccccc3Cl)noc2C)cc1 | / | 9.1 | / | -0.6 | / | 1.8% |
| CC1=C(C(=O)Nc2ccc(C)cc2C)C(CC(C)C)n2nc(SCc3ccccc3C)nc2N1 (stereo not drawn) | / | -5.7 | / | -1.0 | / | 1.4% |
| Cc1cc(C)nc(NC(=O)c2cccc(Cl)c2)n1 | -2.9 | -16.1 | 8.0 | 0.5 | 2.7 | 2.8% |
| COc1ccc(Oc2nc3c(c(=O)n(Cc4ccccc4Cl)c(=O)n3C)n2C)cc1 | / | 8.7 | / | -0.8 | / | 0.3% |
| COc1cc(OC)cc(C(=O)Nc2nc(CC(=O)NCCc3ccccc3)cs2)c1 | -8.2 | -3.4 | 0.5 | 0.3 | -1.1 | 0.3% |
| O=C(CSc1nc(-c2ccco2)cc(C(F)(F)F)n1)NC1CCCCCCC1 | -4.6 | 24.9 | -1.7 | 0.5 | 3.5 | 13.3% |
| Cc1noc(C)c1COc1ccccc1C(=O)NCCc1ccc(S(N)(=O)=O)cc1 | -1.1 | -6.0 | -1.1 | 1.2 | -2.4 | 0.6% |
| Cc1ccc(-c2nnc(N3CCN(C(=O)CN4C(=O)c5ccccc5C4=O)CC3)c3ccccc23)cc1 | -0.2 | -3.0 | 3.8 | -0.2 | -2.7 | 1.9% |
| CCn1c(SCC(=O)c2ccc3ccccc3c2)nnc1-c1ccco1 | 0.3 | 17.7 | -4.3 | 0.6 | -14.0 | / |
| COCCCn1c(-c2cccs2)nc2nc3ccccc3nc21 | -3.2 | 36.2 | 1.7 | -0.4 | / | -0.2% |
| Cc1ccc2c(CN3C(=O)NC4(CCCCC4)C3=O)cc(=O)oc2c1C | -2.0 | 1.0 | -11.6 | 1.1 | -6.3 | ? |
| Cc1ccc(N(CC(=O)NC2CCCCC2C)S(=O)(=O)c2c(C)noc2C)cc1 (stereo not drawn) | -0.8 | -12.0 | 0.0 | -0.2 | -0.9 | 4.8% |
| O=C(NN=C1CCN(Cc2ccccc2)CC1)c1ccccc1 | -4.6 | 12.5 | 0.9 | 1.0 | -3.4 | 0.0% |
| O=C(CSc1ccc(-c2ccncc2)nn1)N1CCCCC1 | 11.3 | -6.0 | -0.5 | -0.6 | -4.2 | 5.2% |
| O=C(CCS(=O)(=O)c1ccc(Cl)cc1)NCCC1=CCCCC1 | -3.3 | -18.0 | -0.6 | 1.0 | 3.6 | 1.4% |
| O=C(Cc1ccccc1F)Nc1cc(S(=O)(=O)N2CCOCC2)ccc1N1CCOCC1 | -1.9 | 16.7 | -0.5 | -0.4 | 4.0 | -0.4% |
| CC(=O)Nc1cccc(-n2nnc(SCC(=O)N(C)c3ccccc3)n2)c1 | 1.9 | 20.8 | 4.7 | -0.6 | 3.2 | -0.6% |
| CNC(=O)C1CC(=O)N(c2ccc(C)cc2)C1 (stereo not drawn) | -1.7 | -3.5 | 1.2 | 2.0 | 5.1 | 0.4%[38.3 µM] |
| CSc1ccccc1OCc1cc(C(=O)N2CCN(c3ccccc3)CC2C)no1 (stereo not drawn) | 1.9 | 6.4 | -20.7 | 1.1 | -15.5 | 1.6% |
| N#Cc1ccc(/C=C/C(=O)c2ccc3c(c2)OCO3)cc1 | 0.3 | -5.1 | -11.5 | 4.3 | / | 4.4% |
| CC1CCC(=NNC(=O)Cc2cccn2C)CC1 (stereo not drawn) | 3.5 | 28.4 | 4.4 | 0.7 | -2.4 | 1.7% |
| CCOc1cc(CNc2ccc3[nH]c(=O)[nH]c3c2)ccc1OCC(=O)NC(C)(C)C | 0.6 | 9.6 | -4.6 | -0.7 | -0.1 | 0.7% |
| COc1cc(C(=O)C(=O)c2cc(OC)c(O)c(OC)c2)cc(OC)c1O | -4.6 | -6.6 | 1.7 | 0.2 | 0.0 | 2.6% |
| CN(C)c1ccc(CNC(=O)c2ccc(NC(=O)c3nsc4ccccc34)cc2)cc1 | / | ? | / | 1.6 | / | 3.2% |
| O=C(N/N=C/c1ccncc1)c1cc(Br)ccc1OCc1ccccc1 | 3.4 | 21.9 | -0.6 | 4.3 | -1.6 | 3.6% |
| COc1ccc(C(c2nnnn2CCc2ccccc2)N2CCN(C3CCCC3)CC2)cc1OC (stereo not drawn) | -4.0 | 1.2 | -1.5 | 0.1 | -3.1 | -0.4% |
| Cc1cccc(Nc2nc(N)c([N+](=O)[O-])c(NCc3ccccc3)n2)c1 | -0.5 | -4.1 | -20.3 | 3.5 | -14.5 | -1.7% |
| CCOc1cc(S(=O)(=O)NCc2ccc3c(c2)OCO3)c(C)cc1C | -2.4 | 27.5 | 0.0 | -0.3 | 2.1 | -1.2% |
| COc1cccc(C(=O)Nc2ccc3c(c2)C(=O)NC3=O)c1 | -3.7 | -11.8 | -10.0 | -1.2 | 2.2 | 2.5% |
| CC1(Cc2cn(CCC#N)c3ccccc23)OCCO1 | -0.5 | 23.1 | 0.4 | 3.3 | -0.4 | -1.2% |
| CS(=O)c1ccccc1COC(=O)Nc1ccccc1 (stereo not drawn) | 5.7 | 5.3 | 3.4 | 2.0 | 4.2 | 0.4% |
| COc1ccc(Cc2c(O)nc(SCC(=O)N3CCOCC3)[nH]c2=O)cc1 | -6.9 | -0.3 | 2.7 | -0.2 | 0.0 | 0.2% |
| O=C(COC(=O)CCNS(=O)(=O)c1ccccc1)NC(=O)Cc1ccccc1 | 5.3 | -11.2 | -0.2 | 2.9 | 3.2 | 0.8% |
